VDR inhibitor: vitamin D3 receptor (human) inhibition; VDR-SRC2-3 peptide fluorescence polarization, 2 h; Potency, µM, for the others: max response, negative = inhibition, actives largely listed as inhibitors; hit rate 0.93% among 400,000; P11473; active means well fitted inhibition curve with a large enough effect; inconclusive means small, poorly fitted or top-dose-only effect, or another doubt; inactive means no such curve, though single readings can be large or run the other way; further: series mostly up to about 120 µM
Target sequence (P11473 whole entry, looked up): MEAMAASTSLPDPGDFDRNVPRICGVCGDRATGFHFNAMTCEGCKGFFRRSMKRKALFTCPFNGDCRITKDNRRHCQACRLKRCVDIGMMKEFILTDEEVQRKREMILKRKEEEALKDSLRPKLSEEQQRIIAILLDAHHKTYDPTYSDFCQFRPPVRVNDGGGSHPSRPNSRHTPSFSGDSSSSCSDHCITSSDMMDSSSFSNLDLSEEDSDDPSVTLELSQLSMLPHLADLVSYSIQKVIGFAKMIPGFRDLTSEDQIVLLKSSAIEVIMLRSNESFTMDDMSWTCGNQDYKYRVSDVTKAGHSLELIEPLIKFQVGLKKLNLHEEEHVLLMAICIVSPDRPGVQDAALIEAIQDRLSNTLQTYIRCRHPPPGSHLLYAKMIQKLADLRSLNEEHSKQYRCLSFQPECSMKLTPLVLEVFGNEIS
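Fluorescence polarization assay measuring small-molecule disruption of VDR binding to the coregulator peptide SRC2-3. Compounds were pin-transferred (23 nl) into the reagent mix and incubated 2 h at room temperature before reading.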
Active calls of the source: *; ? = inconclusive. On the % scale 0 is the no-effect control and ±100 the full control effect; potency means the concentration at half of the fitted maximal effect. Only part of the results is shown; count on the stated rates, not on these rows.

SMILES	VDR inhibitor
CC1=CC(=O)C2=C(C)CC[C@H]3[C@H](C)C(=O)O[C@@H]3C12 (some centres not stated)	4.1%
Cc1nn(C)c(C)c1S(=O)(=O)N(CC(=O)NCCN1CCOCC1)c1ccc(C(C)C)cc1	7.1%
O=C(Cc1ccccc1)Nc1ccc(NC(=O)C2CC2)nc1	-15.8%
O=c1cc(C(F)(F)C(F)F)oc2ccccc12	1.4%
COc1ccccc1N1CCN(C(=O)C2CCN(C(=O)c3cccc(Cl)c3)CC2)CC1	4.1%
Cc1cc(C)c(/C=N/n2c(C)cc(C)c(C#N)c2=O)c(C)c1	-1.8%
CN(CC(=O)Nc1ccccc1Br)CC(=O)Nc1ccccc1-c1ccccc1	-1.7%
CNC(=O)CN(C1CCCCC1)S(=O)(=O)c1ccc(OC)c(Cl)c1	-2.1%
O=S(=O)(Nc1cccc(F)c1)c1ccc2[nH]c3c(c2c1)CCCCC3	12.8%
Cc1cccc(C(=O)Nc2ccccc2-c2nnn(CC(=O)Nc3ccc4c(c3)OCCO4)n2)c1	7.3%
Cc1ccc(C)c(N(C)C(=O)CCS(=O)(=O)c2cccc3nonc23)c1	-7.8%
C=CCn1c(=O)c2ccccc2n2c(SCc3nc(N)nc(Nc4ccccc4C)n3)nnc12	8.9%
Cc1cc(C)c2c3c(sc2n1)C(=O)N(Cc1ccccc1)CC(=O)N3	-6.1%
O=[N+]([O-])c1ccc(CSc2ncnc3c2ncn3[C@@H]2O[C@H](CO)[C@@H](O)[C@H]2O)cc1	?
COc1cc(/C=N/NC(=O)C(=O)NCc2ccco2)ccc1O	-10.8%
C=C1CC(C(=O)N/N=C/c2ccccc2)C1	-2.1%
CCC(CC)c1nn2c(=O)cc(COc3ccc(NC(=O)c4ccc(Cl)cc4)cc3)nc2s1	-3.7%
Cc1cccc(NC(=O)CN(C)S(=O)(=O)c2ccc(-c3ccc(=O)[nH]n3)s2)c1C	-13.5%
COCCN(C(=O)CCC(=O)Nc1cc(C)on1)C(C(=O)NC1CCCC1)c1ccc(C)cc1 (configuration not stated)	-26.2%
CCN(CC(=O)Nc1ccc(NC(C)=O)cc1)C(=O)/C=C/c1cn(-c2ccccc2)nc1-c1ccc(F)cc1	-13.5%
CSCCC1C(C#N)=C(N)Oc2n[nH]c(-c3cccs3)c21 (configuration not stated)	-5.4%
Cc1ccccc1CN1CCc2nc(N3CCN(c4ccccn4)CC3)ncc2C1	15.2%
S=C1NC(C23CC4CC(CC(C4)C2)C3)=CC(c2ccc3c(c2)OCO3)N1 (configuration not stated)	-5.7%
COC(c1ccccc1)c1nnc(CCC(=O)N2CCN(C3CCCC3)CC2)o1 (configuration not stated)	-4.2%
c1ccc2c(c1)Cc1cc(CN3CCOCC3)ccc1-2	-1.8%
Cc1cccc(NC(=O)CN2CCN(C(=O)CN3C(=O)NC4(CCCCC4C)C3=O)CC2)c1C (configuration not stated)	5.2%
Cc1ccccc1OCCCc1c(C)n[nH]c1C	-8.3%
CC(C(=O)c1c[nH]c(C(N)=O)c1)c1ncc(C(F)(F)F)cc1Cl (configuration not stated)	13.6%
O=C(N[C@H]1C/C=C\C(c2cccc(F)c2)N(Cc2ccccc2)C(=O)C1)OCC1c2ccccc2-c2ccccc21 (some centres not stated)	-12.5%
CCc1cc(=O)oc2c(CN3CCN(C)CC3)c(O)ccc12	-19.0%
CCn1nc(C)c(CN2CCC(n3nccc3NC(=O)c3ccccc3OC)CC2)c1C	6.1%
CCOC(=O)Cc1csc(NC(=O)CSc2nc(C)cc(C)n2)n1	2.0%
COc1cccc(C2NC(=O)c3sc(=S)n(-c4ccccc4)c3N2)c1 (configuration not stated)	?
Cc1ccc(-n2nnnc2SCC(=O)N2CCc3ccccc3C2)c(C)c1	-5.1%
O=C(CN1CCCC1=O)NC1(C(F)(F)F)NC(=O)N(Cc2ccccc2)C1=O (configuration not stated)	10.3%
C=C[C@@H]1c2ccccc2N(S(=O)(=O)c2ccc(C)cc2)[C@H](c2ccc(C(=O)OC)cc2)C1(C#N)C#N	-11.4%
CC(C)=CCc1c(-c2ccc(O)cc2O)oc2cc3c(c(O)c2c1=O)C=CC(C)(C)O3	?
N#Cc1ccc(NC(=O)COC(=O)c2cccnc2Cl)cc1	6.3%
Cc1nn(C)c(C)c1NC(=S)Nc1ccc(S(=O)(=O)Nc2ncccn2)cc1	-16.8%
COc1ccc(Br)cc1CN(C)CC(=O)Nc1ccccc1Cl	-3.4%

A section from further up, as a working copy:
SMILES	VDR inhibitor
CSCCC1C(C#N)=C(N)Oc2n[nH]c(-c3cccs3)c21 (configuration not stated)	-5.4%
Cc1ccccc1CN1CCc2nc(N3CCN(c4ccccn4)CC3)ncc2C1	15.2%
S=C1NC(C23CC4CC(CC(C4)C2)C3)=CC(c2ccc3c(c2)OCO3)N1 (configuration not stated)	-5.7%
COC(c1ccccc1)c1nnc(CCC(=O)N2CCN(C3CCCC3)CC2)o1 (configuration not stated)	-4.2%
c1ccc2c(c1)Cc1cc(CN3CCOCC3)ccc1-2	-1.8%
Cc1cccc(NC(=O)CN2CCN(C(=O)CN3C(=O)NC4(CCCCC4C)C3=O)CC2)c1C (configuration not stated)	5.2%

Remaining list, next part.
SMILES	VDR inhibitor
O=C(c1ccco1)N1CCN(Cc2cc(=O)c(OCc3c(F)cccc3Cl)co2)CC1	-1.9%
O=C1CCCN1c1ncc(S(=O)(=O)c2ccc([N+](=O)[O-])cc2)s1	-14.5%
CCN(CC(=O)NCc1ccc(Cl)cc1)C(=O)c1cc(OC)cc(OC)c1	-6.4%
CCOc1ccc(-n2cc(-c3ccccc3)c3c(=S)nc[nH]c32)cc1	11.9%
COc1cccc(CN(C)CC2CCCN(CCc3ccc(Cl)cc3)C2)c1OC (configuration not stated)	-6.5%
COc1cccc(-c2cn3c(n2)sc2cc(C(=O)NCc4ccccc4F)ccc23)c1	7.0%
CC(C)CCN=Cc1c(O)n(-c2ccccc2)c(=O)c2ccccc12	-0.4%
O=c1c(-c2ccc(F)c(F)c2)nc2cncnc2n1Cc1ccccc1	-2.1%
Cc1nc(SCC(=O)Nc2ccc(C)c(Cl)c2)cc(-c2ccccc2)n1	-0.6%
COc1cccc(NC(=O)c2ccc3c(O)c(S(=O)(=O)c4ccccc4)c(=O)[nH]c3c2)c1	?
Cc1ccc(-c2ocnc2C(=O)Nc2ccccc2NC(=O)c2ccccn2)cc1	-15.9%
CN(C(=O)COC(=O)CN1C(=O)c2cccc([N+](=O)[O-])c2C1=O)c1ccccc1	9.4%
NS(=O)(=O)c1ccc(CCNC(=O)COC(=O)Cc2ccc([N+](=O)[O-])cc2)cc1	16.4%
CCOC(=O)c1cc(CC)sc1NC(=O)COC(=O)c1cnccn1	-7.6%
Nc1nc(SCC(=O)C23CC4CC(CC(C4)C2)C3)n[nH]1	17.0%
CC(C)(C)OC(=O)NCCCCCc1nnc(SCc2cccc(F)c2)o1	4.5%
O=C(NCC(=O)N1CCCC(C(F)(F)F)C1)c1ccc(Br)o1 (configuration not stated)	-13.7%
O=C(CSc1nnc(-c2ccc(Cl)cc2)o1)N1CCOCC1	16.6%
CCn1c(=O)c2cc(C(=O)N(C)c3cc(C)ccc3OC)sc2c2ccccc21	-18.2%
C/C=C1\COC(C(=O)NCCN2CCOCC2)(C(F)(F)F)C=C1C=C1CCCCC1 (configuration not stated)	-12.9%
CCCCC1=CC2=C(OC(C)=O)C(=O)C(C)(OC(=O)c3ccco3)C(=O)C2=CO1 (configuration not stated)	?
Cc1oc(S(=O)(=O)N(C)C)cc1C(=O)Nc1ccc(F)cc1	-17.8%
Cc1ccccc1OCCC(=O)N1CCN(S(=O)(=O)c2ccc(F)cc2)CC1	4.4%
CN(C)S(=O)(=O)c1cccc(NC(=O)CN2C(=O)NC(Cc3c[nH]c4ccccc34)C2=O)c1 (configuration not stated)	5.9%
OCc1cc(Br)ccc1OCc1nc2ccccc2s1	-8.4%
COC(=O)c1sc(S(=O)(=O)NCCCN(C)C)c(C(=O)OC)c1C	7.8%
Cc1ccc2c(c1)/C(=C/c1ccccc1C)C(=O)N2	5.3%
CC(C)c1ccc(NC(=O)C(c2ccccc2)N(Cc2ccco2)C(=O)CC2NC(=O)NC2=O)cc1 (configuration not stated)	-15.9%
CC(CCn1cccn1)NC(=O)CCc1nnc(CCc2ccccc2)o1 (configuration not stated)	4.1%
O=C1C(C2=NC(c3ccccn3)C3C(=O)N(c4ccc(OC(F)(F)F)cc4)C(=O)C23)=C(O)c2ccccc21 (configuration not stated)	-5.8%
COc1cccc(CN(C(=O)c2ccccc2Br)C2CCS(=O)(=O)C2)c1 (configuration not stated)	8.8%
Cc1cc(-c2ccccc2)nc(N/N=C/c2cccnc2)n1	7.2%
COc1ccc(CN2C(=O)C(=O)N(CC(N)=O)C2=O)cc1	6.7%
CCn1c2ccccc2c2cc(NC(=O)c3ccco3)ccc21	-2.6%
CCCCn1c(CCNC(=O)c2ccc(F)cc2)nc2ccccc21	-2.3%
CNC(=O)c1ccsc1NC(=O)c1ccc(S(=O)(=O)N2CCc3ccccc32)cc1	6.1%
Cc1cc(NC(=O)CSc2nnc(-c3cccs3)n2N)no1	-11.3%
COc1ccc(OC)c(CNC(=O)NCc2noc3ccc(C)cc23)c1	-3.1%
O=C(C1CC1)N1N=C(C2CCCCC2)CC1(O)C(F)(F)F (configuration not stated)	20.0%
OCCn1c(CSc2nnc(-c3ccco3)n2-c2ccccc2)nc2ccc(Cl)cc21	0.0%
COc1ccc(Nc2nc(Cl)nc(NCCO)n2)cc1	-9.6%
CCN(c1ccc(OC)cc1)S(=O)(=O)c1nnc(NC(=O)c2ccco2)s1	?
CCOc1nc(-c2ccc(OC)cc2)ccc1-c1noc(-c2cc(OC)c(OC)c(OC)c2)n1	3.3%
Cc1cccc(NC(=O)Cn2cnc3ccccc3c2=O)c1C	-20.6%
Cc1ccc(-c2c[nH]c(=S)n2-c2ccccc2F)cc1	?
O=c1nc2c(-c3ccc(F)cc3Cl)n[nH]n2c2ccccc12	3.6%
CCn1nc(C)c(CN2CCC(n3nccc3NC(=O)c3ccc4c(c3)OCO4)CC2)c1C	17.3%
COc1cc(Cl)c(S(=O)(=O)N2CCN(Cc3ccc4c(c3)OCO4)CC2)cc1Cl	3.3%
Cc1ccc(-n2nnnc2CS(=O)(=O)c2ccccc2)c(C)c1	-7.3%
NS(=O)(=O)c1cccc(NC(=O)Cn2cnc3ccccc3c2=O)c1	0.3%
Cc1cccc(C(=O)NCC(=O)N2CCC2)c1	-0.5%
CC(C)=CC(=O)Nc1ccc(S(=O)(=O)Nc2ccccn2)cc1	-7.6%
CC(C)CNC(=O)COC(=O)CCC(=O)c1ccc(Cl)cc1	7.8%
CCSc1nsc(NC(=O)Nc2ccccc2OC)n1	-17.6%
CC(OC(=O)Cc1n[nH]c(=O)c2ccccc12)C(=O)Nc1ccccc1[N+](=O)[O-] (configuration not stated)	-7.6%
O=C(C[n+]1ccc2ccccc2c1)Nc1cc(C(F)(F)F)ccc1Cl	-17.3%
CN1CCN(CCC(=O)Nc2ccc(C3CCCC3)cc2)CC1	-14.7%
Cc1ccc(C)c(NC(=S)NCC(c2cccnc2)N2CCOCC2)c1 (configuration not stated)	-7.8%
Cc1sc(C(=O)Nc2ccc3ccccc3c2)cc1CC(=O)O	-12.1%
Cc1ccccc1NC(=O)CC1S/C(=N/c2nccs2)N(C)C1=O (configuration not stated)	17.5%

(continued)
SMILES	VDR inhibitor
CC/C=C\C/C=C\C/C=C\C/C=C\C=C\C(O)CCCC(=O)O (configuration not stated)	2.9%
O=C(OCC#CCSc1nnc(-c2ccccc2)o1)c1cc2ccccc2o1	-5.7%
C[C@H](CO)N1C[C@H](C)[C@@H](CN(C)S(=O)(=O)c2ccccc2)Oc2ccc(NS(=O)(=O)c3ccc(F)cc3)cc2C1=O	17.6%
CC1CC(C)(C)N(C(=O)CN2C(=O)c3ccccc3C2=O)c2ccccc21 (configuration not stated)	10.4%
CC(CCc1ccccc1)NC(=O)c1ccc(NC(=O)c2cccc(Br)c2)cc1 (configuration not stated)	-0.3%
CCN(CC)S(=O)(=O)c1ccc(NC(=O)CN(c2ccccc2)S(=O)(=O)N(C)C)cc1	-11.0%
O=C1CNC(=O)/C(=C/c2ccco2)N1	-9.4%
CCOc1ccc(/C=C/c2[nH]c(=O)[nH]c(=O)c2[N+](=O)[O-])cc1	?
O=C1NCC(Nc2ccc(Br)cc2)C(=O)N1 (configuration not stated)	7.8%
C=CCNC(=O)c1cccc(Br)c1	-15.1%
CCN(CC)S(=O)(=O)c1cc(NC(=O)Cc2ccc(S(=O)(=O)N3CCOCC3)s2)ccc1Cl	6.3%
CCSc1nc2n(n1)C(c1ccc(CC)cc1)C(C(=O)Nc1ccccc1OC)=C(C)N2 (configuration not stated)	10.1%
COc1ccc(C)c(-n2c(=O)n(Cc3ccccc3)c(=O)c3[nH]cnc32)c1	-10.6%
O=C(N/N=C/C=C/c1ccco1)c1cnccn1	?
Cc1nc(-c2ccc(S(=O)(=O)NCc3cccnc3)s2)cs1	-20.4%
O=C(CC1CCCCC1)N1CCC(c2nc(-c3ccc(S(=O)(=O)N4CCCC4)cc3)no2)CC1	-6.9%
O=C(CSc1nnc(-c2ccccc2)c(-c2ccccc2)n1)N1CCc2ccccc21	-1.6%
N=c1ccn(Cc2ccc(Cl)cc2Cl)cc1	1.0%
O=C(COc1ccc(S(=O)(=O)N2CCCC2)cc1Cl)Nc1ccc2c(c1)OCO2	6.7%

4 entries from above, arranged by length of the SMILES, highest first:
SMILES	VDR inhibitor
C[C@H](CO)N1C[C@H](C)[C@@H](CN(C)S(=O)(=O)c2ccccc2)Oc2ccc(NS(=O)(=O)c3ccc(F)cc3)cc2C1=O	17.6%
CCN(CC)S(=O)(=O)c1ccc(NC(=O)CN(c2ccccc2)S(=O)(=O)N(C)C)cc1	-11.0%
COc1ccc(C)c(-n2c(=O)n(Cc3ccccc3)c(=O)c3[nH]cnc32)c1	-10.6%
N=c1ccn(Cc2ccc(Cl)cc2Cl)cc1	1.0%

Source: PubChem BioAssay (National Center for Advancing Translational Sciences (NCATS))
